# Screens deposited in PubChem BioAssay by Johns Hopkins Ion Channel Center.
# KCNQ2 inh – KCNQ2 potassium channel inhibitors, primary screen, cell-based, CHO-K1, FluxOR thallium flux, B-score (AID 2156); B-score at 10 µM; 310,000 tested, 1.1% active; 20 min; active compounds read low; only compounds with negative scores are shown here; some inactives read as strong as hits; O88943;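 active = fluorescence ratio B-score at most minus 3 library SDs, with starting brightness B-score within 2 library SDs, cut at about -5.5 in these data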
# Target sequence (O88943 whole entry, looked up): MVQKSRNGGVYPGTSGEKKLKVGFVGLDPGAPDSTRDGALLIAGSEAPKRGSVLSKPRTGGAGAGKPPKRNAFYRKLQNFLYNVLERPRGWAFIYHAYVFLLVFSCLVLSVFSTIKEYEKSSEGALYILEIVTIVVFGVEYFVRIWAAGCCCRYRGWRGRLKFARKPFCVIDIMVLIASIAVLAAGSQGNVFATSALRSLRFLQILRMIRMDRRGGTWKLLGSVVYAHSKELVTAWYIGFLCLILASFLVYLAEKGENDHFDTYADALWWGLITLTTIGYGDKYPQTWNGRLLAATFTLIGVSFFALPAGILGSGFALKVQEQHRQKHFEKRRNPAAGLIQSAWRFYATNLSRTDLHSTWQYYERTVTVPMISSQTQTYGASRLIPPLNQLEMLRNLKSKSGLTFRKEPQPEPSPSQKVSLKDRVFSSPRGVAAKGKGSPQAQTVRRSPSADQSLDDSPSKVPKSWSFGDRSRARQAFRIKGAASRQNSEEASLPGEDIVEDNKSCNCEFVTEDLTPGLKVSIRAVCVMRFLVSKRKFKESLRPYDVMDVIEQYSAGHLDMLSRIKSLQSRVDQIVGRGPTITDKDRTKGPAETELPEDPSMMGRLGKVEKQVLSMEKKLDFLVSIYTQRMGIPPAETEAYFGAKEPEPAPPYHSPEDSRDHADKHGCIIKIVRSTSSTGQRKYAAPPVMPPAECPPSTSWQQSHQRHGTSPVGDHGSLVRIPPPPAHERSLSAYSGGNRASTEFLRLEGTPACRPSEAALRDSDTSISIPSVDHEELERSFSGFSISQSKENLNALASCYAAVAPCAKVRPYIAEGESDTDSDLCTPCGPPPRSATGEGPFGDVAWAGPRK
# KCNQ2 inh baseline – also measured in KCNQ2 inh; calls as there; B-score; measured here: initial fluorescence intensity artifact check;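 brightness before thallium and not channel activity; 0 = typical well and far values either way flag optical interference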
# Starred values were filed as active, the others as inactive; i = inactive; & = joins results of further samples. Some of the compounds tested; count on the stated rates, not on these rows.
canonical_smiles | KCNQ2 inh | KCNQ2 inh baseline
CCOP(=O)(C(NC(=O)c1ccccc1Cl)=C(Cl)Cl)c1ccccc1 (stereo unspecified) | i | 0.06
C[C@H](O)[C@H]1CC[C@H]2[C@@H]3CCC4=CC(=O)CC[C@]4(C)[C@H]3CC[C@]12C | i | 1.2
CCOP(=O)(OCC)C(NC(=O)CN1C(=O)c2ccccc2S1(=O)=O)C(Cl)(Cl)Cl (stereo unspecified) | i | 0.73
CCOP(=O)(OCC)C(O)c1ccc(Br)cc1 (stereo unspecified) | i | -0.52
Cn1cc(C(=O)NC2CC2)c2ccccc21 | i | -2.4
CC(C)OP(=O)(O)NC(=O)c1ccccc1 | i | 0.68
O=C(COc1ccc(Br)cc1)N1CCN(Cc2c[nH]c3ccccc23)CC1 | -5.8* | 0.95*
CON(C)C(=O)Nc1ccc(Cl)cc1 | i | 0.03
O=C(c1cc2ccccn2n1)N1CCC2(CC1)OCCO2 | i | 0.92
CC1=CC(=C2C(=O)NC(=S)NC2=O)C=C(C(F)(F)F)N1CCc1ccccc1 | i | -0.69
CCOC(=O)C1=C(NC(=S)NC(=O)c2ccccc2)c2ccccc2CC12CCCC2 | i | -0.93
CCCCn1c(=O)c(C(=O)NCCc2ccccc2)c(O)c2ccccc21 | i | -1.4
CCc1nc2ccccc2c(=O)n1-c1ccc2ccccc2c1 | i | -0.06
O=C(Cc1ccccc1)OCCN1CCOCC1 | i | -0.97
O=C1/C(=C/c2ccccc2Cl)N2CCC1CC2 | i | -1.4
O=c1c2ccccc2nc(CSc2ncnc3nc[nH]c23)n1-c1ccccc1 | i | -0.78
CC(C(N)=O)N1CC(c2ccccc2)CC1=O (stereo unspecified) | i | 0.38
O=C(c1ccc(Cl)cc1)C1CCCN(Cc2cccc3cnccc23)C1 (stereo unspecified) | i | -0.17
CCn1c(O)c(C=Nc2ccc(N3CCOCC3)cc2)c(=O)n(CC)c1=S | i | 7.2
c1ccc2sc(C3CCNCC3)nc2c1 | i | -1.4
COc1cc(/C=C/C(=O)c2c(O)n(CCc3ccccc3)c(=O)[nH]c2=O)ccc1O | i | -0.12
Cc1ccc2c(c1)N(N=O)CCC2 | i | -1.7
Nc1cncc(C(=O)O)c1 | i | -0.56
O=C(c1cccn2c(=O)c3cc(Cl)ccc3nc12)N1CCC2(CC1)OCCO2 | i | -0.32
COc1ccc(NC(=O)c2c(C)nn(Cc3ccccc3Cl)c2Cl)cc1Cl | i | 0.18
O=C(C1CC(c2ccc(Cl)c(Cl)c2)=NO1)N1CCC2(CC1)OCCO2 (stereo unspecified) | i | -0.19
Nc1c(C(=O)OC2CCCCC2)c2nc3ccccc3nc2n1CC1CCCO1 (stereo unspecified) | i | 0.01
NC(=O)Cn1cc(C=C2C(=O)NC(=O)NC2=O)c2ccccc21 | i | 43
CC(C(=O)Nc1ccc(Cl)cc1Cl)N1CC=C(c2ccccc2)CC1 (stereo unspecified) | i | -0.02
Cc1ccc2c(c1)C1CN(C)CCC1N2C(=O)/C(C#N)=C/c1ccc2c(c1)OCO2 (stereo unspecified) | i | 0.62
Cc1ccc2c(CN3CC=C(c4ccccc4)CC3)cc(=O)oc2c1C | i | 1.8
Cc1cccc(-n2c(C)nc3ccc(Cl)cc3c2=O)c1 | i | 1.4
CCCC(=O)N(C)C1=Nc2ccc(Cl)cc2C(c2ccccc2)=[N+]([O-])C1 | i | 1.1
O=C(CN1CC(c2ccccc2)CC1=O)Nc1cccc(F)c1 (stereo unspecified) | i | 0.45
COc1ccc(C2CN(C)CC2C(=O)c2ccc(F)cc2)cc1Cl (stereo unspecified) | i | -0.12
O=C(NCc1ccc(C(=O)N2CCC3(CC2)OCCO3)cc1)c1ccc2c(c1)OCO2 | i | 0.93
CCN1CCN(CC(c2ccccc2)c2ccccc2)CC1 | i | -1.2
Cc1cccc(C)c1OC(=O)Cc1ccccc1 | i | -0.09
O=c1c2ccccc2nc(-c2ccccc2)n1-c1ccccc1 | i | 1.1
S=C1NC2(CCCCC2)NC12CCCCC2 | i | 2.2
N#CC1(c2ccccc2)CCN(C2CC(=O)N(c3cccc(F)c3)C2=O)CC1 (stereo unspecified) | i | 1.3
O=C(Cc1ccccc1)OC(COCc1ccccc1)CN1CCOCC1 (stereo unspecified) | i | 0.02
CCOc1ccccc1OCC(=O)Nc1ccc(Cl)cc1C(=O)c1ccccc1 | i | 1.5
CCOP(=O)(OCC)C(O)c1ccc(N(C)C)cc1 (stereo unspecified) | i | 0.49
O=c1[nH]c(=O)n(-c2ccccc2)c(O)c1/C=C/C=Nc1ccccc1 | i | 2.6
CC(=O)Nc1ccc(OC(=O)N2CCCCC2)cc1 | i | 0.29
CC[C@@H](CO)NC(=O)[C@@H]1C=C2c3cccc4c3c(cn4C)C[C@H]2N(C)C1 | i | 0.12
CN1C(=O)C(=Cc2cc([N+](=O)[O-])ccc2N2CCCCC2)C(=O)N(C)C1=O | i | 3
O/N=C1\CCC2CN(C3CCCCC3)CC2C1 (stereo unspecified) | i | 0.16
CCN1CCN(c2ccc(NC(C)=O)cc2Cl)CC1 | i | 0.02

# Later entries:
canonical_smiles | KCNQ2 inh | KCNQ2 inh baseline
CC12CC[C@H]3[C@@H](CCC4(O)C[C@H](O)CCC34/C=N/NC(=O)c3ccccc3[N+](=O)[O-])C1(O)CCC2C1=CC(=O)OC1 (stereo partly specified) | i | -0.04
Cc1cc(NC(=O)CCC(=O)N2CCC3(CC2)OCCO3)no1 | i | 0.61
CN(C)c1ccc(/C=C2/C(=N\O)C3CCN2CC3)cc1 | i | 0.26
CC(=O)N1N=C2C3CCN(CC3)C2C1c1ccc(C)cc1 (stereo unspecified) | i | 1.1
Cc1cc(Oc2ccc(C(F)(F)F)cc2[N+](=O)[O-])c2c3c(c(=O)oc2c1)CCCC3 | i | -0.82
COc1ccc(-n2nc(C(=O)NCC(=O)N3CCC4(CC3)OCCO4)c3ccccc3c2=O)c(OC)c1 | i | -1.1
CCOc1ccc2nc(N=Nc3c(O)[nH]c(=O)[nH]c3=O)sc2c1 | i | -2.1
CCCCCCC[n+]1ccc(-c2cc[n+](CCCCCCC)cc2)cc1 | i | -0.49
CC(C)(C)P(=O)(c1ccncc1)N1CCCC1 (stereo unspecified) | i | -0.26
Cc1cc(C(=O)CN2CCCC2)c(C)n1-c1ccc(F)cc1 | i | -0.91
O=C(c1cc(-c2ccncc2)nc2ccccc12)N1CCC2(CC1)OCCO2 | i | -0.9
O=[N+]([O-])/C=C1\NCCN1Cc1ccc(Cl)nc1 | i | 2.6&-0.2
COc1ccc(N2C(=O)NC(=O)/C(=C\c3ccc([N+](=O)[O-])s3)C2=O)cc1 | i | 1.3
CCOc1ccccc1CN1CCCC(C(=O)c2cc(F)ccc2F)C1 (stereo unspecified) | i | 2.4
c1cncc(C2CCCN2)c1 (stereo unspecified) | i | 0.1
CCn1ccnc1CN1CCCC(C(=O)c2cc(C)c(OC)c(C)c2)C1 (stereo unspecified) | i | -0.09
CC(=O)Nc1ccccc1C(=O)OCc1ccc(C(=O)c2ccccc2)cc1 | -6.5* | -0.5*
Nc1ccc2c(c1)oc1ccccc12 | i | 1
COc1ccc(-c2n(-c3ccccn3)c3ccccc3[n+]2-c2ccccn2)cc1 | i | 1.6
COc1ccc(-c2cc(=NCCCCCC(=O)O)c3cc(C)ccc3o2)cc1 | i | 0.75
N#Cc1c(/N=C/C2C(=O)NC(=S)NC2=O)sc2c1CCCC2 | i | 0.52
CC(C)CCNC(=O)CN1C(=O)CN=C(c2ccccc2)c2ccccc21 | i | 0.15
Cc1cc(OCc2ccc([N+](=O)[O-])cc2)c2c3c(c(=O)oc2c1)CCCC3 | i | -1.4
COc1cc2c(C(=O)N3CCN(C)CC3)c(C)n(C)c2cc1Br | i | -0.18
O=c1[nH]c(=O)n(Cc2ccco2)c(O)c1C=NCCCn1ccnc1 | i | 2.2
Cn1cc(C(=O)NCc2ccccc2)c2ccccc21 | i | 0.77
O=c1[nH]c(=O)n(C2CCCCC2)c(O)c1C=NCCCn1ccnc1 | i | -0.44
COc1ccc(O)c(CN2CCCC(C(=O)c3sccc3C)C2)c1 (stereo unspecified) | i | 1.8
COCCCNC(=O)c1c(N)n(Cc2ccco2)c2nc3ccccc3nc12 | i | -1.7
O=C1C2CCN(CC2)C12CC2c1ccc(C(F)(F)F)cc1 (stereo unspecified) | i | 1.5
COc1cccc(C2=NOC(C(=O)N3CCC4(CC3)OCCO4)C2)c1 (stereo unspecified) | i | 0.07
Cc1nn(Cc2ccccc2)c(C)c1C(=O)OCC(=O)Nc1ccccc1SCC#N | i | 0.15
CCOc1cc2c(cc1OCC)-n1cccc1C(c1ccc(F)c(OC)c1)NC2 (stereo unspecified) | i | 2
Cc1cc(C)c(C(=O)N2CCC3(CC2)OCCO3)c(C)c1 | i | 1.4
NC(=O)c1cn(C2CCCCC2)c2ccccc2c1=O | i | 0.33
CC(Cc1ccccc1)NCCC(=O)NC(C)Cc1ccccc1 (stereo unspecified) | i | -0.15
O=c1[nH]c(=S)n(C2CC2)c(O)c1C=NCc1ccc(F)cc1 | i | 1
CCCCCCn1c(O)c(C=NCCN2CCOCC2)c(=O)[nH]c1=O | i | 1.3
O=C(NCCN1CCOCC1)c1ccc(Cl)nc1 | i | 0.58
CC(=O)Cc1c[nH]c2ccccc12 | i | -0.5
Cc1ccccc1-n1c(CNc2ccccc2)nc2ccccc2c1=O | i | -0.65
CC12CN3CN(C1)CC(C)(C3)C2=NO | i | 0.1
COC(=O)Cn1cc(/C=C2\C(=O)NC(=O)N(c3ccccc3)C2=O)c2ccccc21 | i | -0.29
Cc1ccc(OCCSC2=NN2c2cc(C)nc(N)n2)cc1 | i | -0.13
CCC(=NC1CC1)c1c(O)n(-c2ccc(OC)cc2)c(=O)[nH]c1=O | i | 1.1
CN1CCN(c2nc3ccccc3o2)CC1 | i | -0.01
Cn1ccnc1P(=S)(c1nccn1C)N1CCOCC1 | i | 0.2
CCc1ccc2c(CN3CC=C(c4ccccc4)CC3)cc(=O)oc2c1 | i | -1.8
CCCCCCn1c(O)c(C=NCCCn2ccnc2)c(=O)[nH]c1=O | i | 1.1
O=c1c2ccccc2nc(-c2ccco2)n1-c1cccnc1 | i | 1

# Continuation.
canonical_smiles | KCNQ2 inh | KCNQ2 inh baseline
c1ccc(CNCCc2c[nH]c3ccccc23)cc1 | i | 0.33
CC(=NCCc1ccccc1)c1c(O)n(C)c(=O)n(C)c1=O | i | 0.24
CN1C(=O)C(=Cc2ccccc2OCc2ccccc2Cl)C(=O)N(C)C1=O | i | -0.17
Cc1oc(-c2ccc(Cl)cc2)nc1CS(=O)CC(=O)N1CCC2(CC1)OCCO2 (stereo unspecified) | i | 0.02
CCCCCn1c(=O)c(C(=O)Nc2nc(CC(=O)OCC)cs2)c(O)c2ccccc21 | i | 0.04
COc1ccc(-c2nc3ccc(C(=O)N4CCC5(CC4)OCCO5)cc3nc2-c2ccc(OC)cc2)cc1 | i | 2.2
c1ccc2c(N3CCNCC3)cccc2c1 | i | -1
Cn1ncc(Cl)c1C(=O)N1CCC2(CC1)OCCO2 | i | -0.04
Nc1ccc2cc(Br)ccc2c1 | i | -1.2
Cc1cccc(-n2c(O)c(C=NCCN3CCNCC3)c(=O)[nH]c2=S)c1 | i | 3
O=C(c1cc(C(=O)NCc2ccc(Cl)cc2)c(=O)n(Cc2ccc(Cl)cc2)c1)c1cc(F)ccc1O | i | 0.68
O=C(Cc1ccccc1)Oc1ccc([N+](=O)[O-])cc1 | i | 0.04
O=c1c2ccccc2nc(-c2ccccc2)n1-c1ccccc1O | i | -4.9
CCc1ccc(N2C(=O)NC(=O)/C(=C/c3cccn3CCOc3ccc(C)cc3)C2=O)cc1 | i | -0.69
O=C(c1ccccc1)C1NC1c1ccccc1 (stereo unspecified) | i | 1.3
COc1cccc(N2C(=O)NC(=O)/C(=C/c3ccc([N+](=O)[O-])s3)C2=O)c1 | i | 0.54
COc1ccc(CCNCc2cccn2C)cc1OC | i | 0.91
O=C1NC(=O)N(c2ccccc2)C(=O)/C1=C/c1ccc(Sc2ccccc2)o1 | i | 0.11
Cc1ccc(CN2C3CCCC2CC(NC(=O)Nc2cccc(F)c2)C3)cc1 (stereo unspecified) | i | 1.4
CCOC(=O)C(C)(CC)NC(=O)CSP(=S)(OCC)OCC (stereo unspecified) | i | -0.38
O=c1c2ccccc2nc(-c2cccs2)n1-c1ccccc1 | i | 0.11
Cc1nc2ccc(Cl)cc2c(=O)n1-c1cccc(Cl)c1 | i | 0.96
CCN(CC)c1ccc(C=C2C(=O)N(C)C(=S)N(C)C2=O)o1 | i | 0.11
CN1C(=O)C(Cc2nc3ccccc3c(=O)n2-c2ccccc2)c2ccccc21 (stereo unspecified) | i | -2.3
Cc1nc2ccc(Br)cc2c(=O)n1-c1ccc([N+](=O)[O-])c(C(F)(F)F)c1 | i | -2.1
